# Compound activity deposited in PubChem by PCMD.
# Calb biofilm kill: clotrimazole potentiators killing C. albicans biofilm, primary screen, 4-compound mixtures. AID 1242, 2008. inhibition, % at 7.6 µM. 120,000 tested, 0.02% active. C. albicans biofilm persisters + clotrimazole, fluorescence viability; primary screen in compound mixtures of four per well;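 active means inhibition above 30.3% in the primary screen of four-compound pools, then above 30% when the compound was retested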;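 further: compounds exposed to preformed 24 h biofilms for 48 h; the number belongs to the whole pool; some results filed as inactive read as strong as hits; inactives centre near 12; 0% = biofilm with clotrimazole alone and 100% = kill control; retested singly at about 60 µM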
#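 Incubation: 24 h biofilm formation, then 48 h compound exposure, 37 °C | Material: C. albicans biofilms | Buffer or medium: RPMI/MOPS medium, pH 7.0 | Measured by: 2-h Alamar Blue fluorescence, 535/590 nm excitation/emission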
# The depositor's hits bear a star.
mol,Calb biofilm kill
Cc1ccc(/C=C/C(=O)O)cc1S(=O)(=O)NC1CCS(=O)(=O)C1 (stereo not given),10
Cc1csc(Nc2ccccc2)[n+]1-c1ccccc1,14
Cc1cc(NC(=O)c2ccccc2O)nc(C)n1,16
CC(=O)c1ccc(NC(=O)CSc2nc(=O)cc(N)n2-c2ccccc2)cc1,12
CC(=O)c1cccc(NC(=O)c2ccc(C)o2)c1,12
CCc1cc2c(=O)c(-c3nc(C)cs3)coc2cc1OC(C)C(=O)NCCO (stereo not given),6
COc1ccccc1C(=O)N/C(=C/c1cccc([N+](=O)[O-])c1)C(=O)Nc1cccc(C(=O)O)c1,17
NC(=O)N/N=C/c1coc2ccc3ccccc3c2c1=O,21
Cc1nnsc1C(=O)NC(C)c1ccccc1 (stereo not given),4
CC(=O)c1cc(F)c(N2CCCCCC2)cc1C,11
O=[N+]([O-])c1cc(CN2CCCC2)ccc1Sc1ccc(Cl)cc1,10
CS(=O)(=O)N1CCN(C(=O)c2cc(-c3cccnc3)nc3ccc(Cl)cc23)CC1,9
O=C(COC(=O)Cc1ccc(-c2ccccc2)cc1)NCc1ccc(F)cc1,-3
N#CC(C#N)=C1CCc2ccccc2N1,12
COc1cc(-c2n[nH]c(=S)n2-c2cc(C(F)(F)F)ccc2Cl)cc(OC)c1OC,23
Cc1cccc(NC(=O)CC2C(=O)NC3CCCCC3N2C(=O)c2ccccc2Cl)c1 (stereo not given),6
COc1ccccc1C(=O)NC(=O)Nc1nc(-c2ccccc2)cc(C(F)(F)F)n1,14
COc1ccc(-c2cc3nc(-c4ccccc4)cc(N4CCC(O)CC4)n3n2)cc1,28
CC(Cc1c[nH]c2ccccc12)NC(N)=O (stereo not given),11
Nc1cnn(Cc2ccccc2F)c1,5
CC(C)CN(C)C(=O)CCc1nnc(Cc2ccc(-c3ccccc3)cc2)o1,0
CCOC(=O)Cn1cc(C#N)c(=O)[nH]c1=O,13
CCCCOc1ccc(C(C)NC(=O)C2CCCN(S(=O)(=O)CCC)C2)cc1 (stereo not given),2
O=C(N/N=C/c1c(F)cccc1Cl)c1ccc(Cn2cc(Br)cn2)o1,10
O=C(Nn1c(Cc2cccs2)nc2ccccc2c1=O)c1ccc(F)c(F)c1,12
C/C(=N\S(=O)(=O)c1ccc(C)cc1)NC(=S)Nc1ccccc1,21
CC(=O)N/C(=C/c1ccc2c(c1)OCO2)C(=O)O,32
Cc1onc(-c2ccccc2)c1C(=O)c1c[nH]c(C(=O)NCc2ccccn2)c1,24
O=C(NCC1CCCO1)C(c1cccs1)N(C(=O)c1ccc(-c2ccccc2)[nH]1)C1CCCC1 (stereo not given),9
C=CCNC(=S)N(C1CCCCC1)C1CCCCC1,17
COC(=O)CCN(C(=O)c1ccc(N2CCCCC2)c([N+](=O)[O-])c1)c1ccccn1,-7
Cc1onc(C(=O)NCc2ccccn2)c1[N+](=O)[O-],10
CC(=O)c1c(O)cc(=O)n(-c2ccccc2)c1-c1ccc(Cl)cc1,7
Cc1ccc(S(=O)(=O)N2CCC(C(=O)OC(C)C(=O)NC(N)=O)CC2)cc1C (stereo not given),21
Clc1ccc(-c2nnc(NCc3ccccc3)c3ccccc23)cc1,12
COc1ccc(C)cc1NC(=O)C(Sc1nncn1C)c1ccccc1 (stereo not given),1
Cc1ccccc1C(=O)N/N=C1/SCC(=O)N1Cc1ccc2c(c1)OCO2,18
COc1ccc(-n2ccnc2CN2CCN(C3CCCC3)C(CCO)C2)cc1 (stereo not given),-8
COc1ccc2cc(/C=C3\SC(=S)NC3=O)c(N3CCOCC3)nc2c1,15
O=C(CSCc1ccccc1F)NCc1ccc(F)cc1,5
CCOC(=O)N1CCN(C(=O)c2ccc3c(=O)n(-c4ccccc4F)c(=S)[nH]c3c2)CC1,9
O=C1NC(=O)C(Nc2cccc3ccccc23)S1 (stereo not given),17
Cc1ccc(C(=O)c2oc3ccccc3c2NC(=O)c2cc(-c3ccccc3O)n[nH]2)cc1,12
O=C(NC(=S)Nc1ccccn1)c1cc(-c2ccccc2)nc2ccccc12,10
Cc1ccc(S(C)(=O)=O)cc1S(=O)(=O)Nc1ccccc1,17
Cc1ccc(-c2nn(C)c(=O)c3ccccc23)cc1S(=O)(=O)NCCN(C)C,23
Nc1nc(NC(=O)CCC(=O)O)nn1-c1ccccc1,17
COc1ccc(N=C(NN)c2ccc3ccccc3n2)cc1,-3
CCO[C@H]1OC(C(=O)N2CCN(Cc3ccccc3)CC2)=C[C@@H](c2cn(C(C)=O)c3ccccc23)[C@@H]1CCCO,19
CC(C)N1CCC2(CC1)Oc1ccc(Br)cc1C1CC(c3cccnc3)=NN12 (stereo not given),17

# Going on with the list.
mol,Calb biofilm kill
Cc1ccccc1/C=N/NC(=O)c1sccc1C,12
Cc1cccc(C)c1OCC(=O)Nc1cccc(C(=O)O)c1,10
CS(=O)(=O)N1CCN(c2ccccc2NC(=O)c2cccc3ccccc23)CC1,16
NC(=O)COC(=O)Cc1coc2cc3c(cc12)CCC3,1
COc1ccc(Cl)cc1C(=O)Nc1ccc(Br)c(C)n1,4
Cc1ccc(CNC(=O)C2CC(c3ccc(C(F)(F)F)cc3)=NO2)o1 (stereo not given),18
CCCCN1C(=O)N(C)C2NC(=S)NC21 (stereo not given),4
CCC(Oc1ccccc1)C(=O)NCCOC (stereo not given),-15
Cc1cc(C(=O)N/N=C/c2cccs2)no1,-7
CCC(Oc1ccccc1)C(=O)N(Cc1ccccc1)c1ccccn1 (stereo not given),4
Cc1cccc(NCc2ccc(O)c3ncccc23)c1C,1
Cc1ccc(NC(=O)NC2CCCCC2)cc1S(=O)(=O)N1CCOCC1,15
CC1=C(C(=O)N2CCOCC2)C(c2ccc(Cl)cc2)NC(=S)N1 (stereo not given),16
CCCCC1=CC2=C(c3ccco3)C(=O)C(C)(OC(=O)c3ccc(OC)cc3)C(=O)C2=CN1c1ccccc1 (stereo not given),20
COCCCn1c(C)nnc1SCC(=O)NCc1ccco1,9
Cc1cc(Nc2ccc(F)c(F)c2)nc(-c2ccccc2O)n1,13
CC1=C(C#N)C(=O)NC(=O)/C1=C\c1ccc(-c2ccc(C)cc2[N+](=O)[O-])o1,19
CCOCCCNC(=O)c1ccc2c(=O)n(Cc3ccc4c(c3)OCO4)c(=S)[nH]c2c1,15
COc1cccc(Cn2c(=O)ccc3ccccc32)c1,3
CN1CCN(CC(=O)Nc2nc(-c3c[nH]c4ccccc34)cs2)CC1,0

# Pulled by compound from the list above:
mol,Calb biofilm kill
CCCCC1=CC2=C(c3ccco3)C(=O)C(C)(OC(=O)c3ccc(OC)cc3)C(=O)C2=CN1c1ccccc1 (stereo not given),20
Cc1cccc(NCc2ccc(O)c3ncccc23)c1C,1
CCOCCCNC(=O)c1ccc2c(=O)n(Cc3ccc4c(c3)OCO4)c(=S)[nH]c2c1,15
COCCCn1c(C)nnc1SCC(=O)NCc1ccco1,9

# Next part:
mol,Calb biofilm kill
Cc1ccc(N=Nc2c(N)nn3c(N)c(C#N)c(C)nc23)cc1,-4
Cc1ccccc1CSCC(=O)Nc1ccccc1-c1ccccc1,9
O=C(c1nnsc1S(=O)(=O)c1ccc(Cl)cc1)N1CCOCC1,19
CC(=O)Nc1ccc(-c2ccc(NC(C)=O)cc2)cc1,11
Cc1ncc([N+](=O)[O-])n1CC(=O)NC1CCCCCC1,20
O=C(/C=C/c1ccc[nH]1)c1ccccc1,7
Cc1ccc(C)n1-c1nccc(-c2ccco2)n1,9
COc1ccc(N=Nc2ccc(O)c3ncccc23)cc1,-6
CCCn1c(SCC(=O)Nc2cc(S(=O)(=O)N3CCOCC3)ccc2OC)n[nH]c1=O,-4
O=C(NCc1ccncc1)C(=O)NCc1ccco1,20
CCCCCCCC[n+]1cccc(C(=O)N2c3c(nc(N)[nH]c3=O)NC(C)C2C)c1 (stereo not given),16
CCOC(=O)CC(=O)CSc1ncnc2c1nnn2-c1ccc(F)cc1,19
COc1cccc2cc(/C(=N/O)c3ccccc3)oc12,10
Cc1noc(C)c1COc1ccc(C(=O)OCC(=O)Nc2c(C)n(C)n(-c3ccccc3)c2=O)cc1,8
CCOC(=O)c1ccccc1N1C(=O)C2Sc3[nH]c(=O)sc3C(/C=C/c3ccccc3)C2C1=O (stereo not given),10
COc1ccc(CC2(C)OC(c3ccc(C)c([N+](=O)[O-])c3)=NN2C(C)=O)cc1 (stereo not given),6
Cn1c(N)cc(=O)n(Cc2ccccc2)c1=O,11
COc1ccc(CCNC(=O)Cc2cc(OC)c(OC)cc2Br)cc1OC,4
CC1CC1C(=O)OCC(=O)Nc1cccc([N+](=O)[O-])c1 (stereo not given),13
O=C(c1cccc(F)c1)N1CCN(c2ccc([N+](=O)[O-])c3cccnc23)CC1,5
CS(=O)(=O)Nc1ccccc1C(=O)NCc1ccccc1Cl,14
Cc1ccc(NC(=S)N(Cc2cccs2)Cc2cc3cccc(C)c3[nH]c2=O)cc1,0
CCOCCCNCc1cc(Br)ccc1OCc1ccccc1,11
O=C(Cn1cc(C(=O)C2CCCCC2)c2ccccc21)NCC1CCCO1 (stereo not given),12
O=C(N/N=C/c1cccs1)c1ccc(-n2cccc2)cc1,32
NS(=O)(=O)c1cccc(NC(=S)NC(=O)c2cccc([N+](=O)[O-])c2)c1,15
O=S1(=O)N=C(N/N=C/c2ccco2)c2ccccc21,15
COc1cccc(-c2nc(-c3ccc(Br)o3)no2)c1,9
CNC(=O)CSc1nc2ccccc2c(=O)n1-c1cc(OC)ccc1OC,10
COc1cc(OC)c(OC)cc1/C=N/NC(=O)c1ccc(=O)n(C)c1,3

# An excerpt of these results, with each value named:
COCCCn1c(C)nnc1SCC(=O)NCc1ccco1
  Calb biofilm kill: 9

Cc1cc(Nc2ccc(F)c(F)c2)nc(-c2ccccc2O)n1
  Calb biofilm kill: 13

CC1=C(C#N)C(=O)NC(=O)/C1=C\c1ccc(-c2ccc(C)cc2[N+](=O)[O-])o1
  Calb biofilm kill: 19

CCOCCCNC(=O)c1ccc2c(=O)n(Cc3ccc4c(c3)OCO4)c(=S)[nH]c2c1
  Calb biofilm kill: 15

# (more compounds)
mol,Calb biofilm kill
CC(C)Cn1c(N)c(C(=O)COC(=O)c2ccc(F)cc2)c(=O)n(C)c1=O,14
Cc1ccc(-c2ccc(/C=N/NC(=O)CN3CCOCC3)o2)cc1[N+](=O)[O-],-1
COc1ccccc1C(=O)O/N=C(\c1ccccc1)c1ccncc1,10
CCN(C(=O)COc1ccccc1[N+](=O)[O-])C1CCS(=O)(=O)C1 (stereo not given),18
C=CCn1c(=O)/c(=C\c2ccccn2)s/c1=C(/C#N)C(=O)NCC1CCCO1 (stereo not given),16
CC1(C)N=C(N)NC(Nc2ccccc2Cl)=N1,6
COc1cc(/C=N/NC(=S)Nc2cccc(Cl)c2C)ccc1OCC(=O)N1CC(C)OC(C)C1 (stereo not given),8
Nc1nn(S(=O)(=O)c2ccccc2)cc1-c1ccc([N+](=O)[O-])cc1,14
Cc1ccc(-c2nn(CCC(=O)O)cc2/C=C\C(=O)c2ccc(Br)cc2)cc1,17
C/C(=N\NC(=O)C1COc2ccccc2O1)c1ccccn1 (stereo not given),22
O=C1N(c2ccccc2)C(c2ccccc2)N2CCCN12 (stereo not given),5
NS(=O)(=O)c1ccc(CCNC(=S)NC2CCCCC2)cc1,26
CCOCCCNC(=O)/C(C#N)=C/c1ccc(C)o1,13
CC(=O)c1cc(-c2ccccc2)n(CCC(=O)NC(C)(C)C)c1C,-1
CCNC(=O)Nc1nc2ccccc2s1,11
CC1(C)CC2CC(C)(CN2C(=O)NC(=O)c2ccccc2)C1 (stereo not given),18
COCCN1C(=O)N[C@@H](c2ccccc2)C(C(C)=O)=C1C,18
Cc1ccc(NC(=O)COc2ccc(Br)cc2C)cc1,3
Cc1cccc(C(=O)NNC(=O)c2cccc([N+](=O)[O-])c2)c1,25
CN(C)c1ccc(/C=N/NC(N)=S)cc1[N+](=O)[O-],20
CC(C)CNS(=O)(=O)c1ccc(NC(=O)Cn2nc(-c3ccc(F)cc3)ccc2=O)cc1,-5
NC(=O)CC(NC(=O)Cc1cccc2ccccc12)c1ccc(NCc2cc(F)ccc2F)c([N+](=O)[O-])c1 (stereo not given),13
Cc1cc(C)nc(/N=C(\N)Nc2ccc([N+](=O)[O-])cc2)n1,-1
C=CCOC(=O)C1=C[C@H](c2coc3ccccc3c2=O)[C@@H](CCCO)[C@H](OCC)O1,17
N#Cc1cnn2c(C(F)(F)F)c3c(nc12)CCCC3,-4
COc1ccc(-n2c(C)cc(C(=O)CN3C(=O)C(=O)N(Cc4ccccc4)C3=O)c2C)cc1,11
O=C(Nc1cccc(C(=O)O)c1)/C(=C\C=C\c1ccccc1)NC(=O)c1ccccc1,7
CCOC(=O)c1cc2c(ccn2C)n1CC(=O)N(Cc1ccccc1)c1ccc(F)cc1,16
CCc1cccc(NC(=O)CN(C)S(=O)(=O)c2cccc3cccnc23)c1,17
CCOc1cc(NC(=O)c2ccccn2)c(OCC)cc1NC(=O)c1cccc(C)c1,7
Cc1ccccc1C1C(C#N)=C2N=C(N)c3ccccc3N2C2=C1C(=O)CCC2 (stereo not given),23
CC1(C)Cc2c(sc(NC(=O)c3ccccc3)c2C(=O)O)CO1,5
Cc1ccc(S(=O)(=O)N2CCN=C2c2ccccc2)cc1C,12
O=C(Cn1cnc([N+](=O)[O-])c1)NC1CCCC1,6

# A portion of the library. The share of hits here may be higher or lower than overall.
